Source: PubChem
UCH37 inh = inhibitors of human UCH37 deubiquitinase, primary screen, biochemical, Ub-AMC cleavage, fluorescence. Ubiquitin carboxyl-terminal hydrolase isozyme L5 (Homo sapiens), Q9Y5K5. purified proteasome/UCH37. inhibition, % (concentration not given with the values). 330,000 compounds, 0.33% hits;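 active = mean of two replicates above 20%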;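 note: 0% = compound-free wells with enzyme and 100% = wells lacking proteasome; stock transfer was 100 nL into about 20 µL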
Target sequence (Q9Y5K5 whole entry, looked up): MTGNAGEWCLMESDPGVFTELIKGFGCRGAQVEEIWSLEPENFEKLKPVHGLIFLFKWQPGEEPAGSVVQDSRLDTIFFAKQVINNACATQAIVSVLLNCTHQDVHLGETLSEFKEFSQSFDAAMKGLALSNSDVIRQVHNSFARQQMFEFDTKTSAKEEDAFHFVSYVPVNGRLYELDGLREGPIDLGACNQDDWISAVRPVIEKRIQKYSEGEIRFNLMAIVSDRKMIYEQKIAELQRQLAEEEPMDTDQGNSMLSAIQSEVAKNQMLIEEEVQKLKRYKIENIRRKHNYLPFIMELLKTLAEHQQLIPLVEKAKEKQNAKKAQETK
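Test system – human UCH37 enzyme supplied as purified proteasome complex · Incubation – 30 min preincubation with enzyme, 25 min cleavage at room temperature · Detection – AMC fluorescence from Ub-AMC cleavage, excitation 355 nm, emission 460 nm · Benchmarks – no-proteasome wells (full inhibition) and compound-free wells (no inhibition)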
E coli growth = E. coli growth inhibition, primary screen, OD600. Escherichia coli growth, 23 h; active compounds read low. OD600 absorbance (concentration not given with the values). 330,000 compounds, 0.21% hits. AID 1053175, 2014;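 active = OD600 absorbance below the run mean of sample wells minus 3.6 SD, in any replicate, cut at about 0.56 in these data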;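 note: stock transfer was 300 nL into about 60 µL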
Active calls of the source: *; i = inactive. Some of the compounds tested; rates above refer to the full screens.

Compound,UCH37 inh,E coli growth
O=C(NN=Cc1ccc(N2CCOCC2)s1)c1ccccc1Br,2.8,0.68
CCc1nnc(NN=Cc2ccc(O)c(OC)c2)n1N,4.7,0.69
CC(/C=C/c1ccccc1)=NO,0.8,0.72
COCC(=O)NN=C(C)CC(=O)NCc1ccco1,3.9,0.73
Cc1ccc(OCC(=O)NN=Cc2cn(Cc3ccccc3)c3ccccc23)cc1,-0.2,0.67
Cc1nc2sc3c(c2c(=O)n1N=Cc1ccco1)CCCC3,4.1,0.71
CC(=NNC(=O)CSc1nnc(C)s1)c1ccc(O)cc1,-0.1,0.7
CCOc1cc(C=NO)cc(Cl)c1OC,1.0,0.72
O=C(NN=Cc1ccccc1)c1ccc(N2CCCC2=O)cc1,4.8,0.71
Nc1nnnn1N=C/C=C/c1ccccc1,4.5,0.67
CN(C)C=NC1=C(C#N)C(c2ccc(Br)cc2)c2ccc3ccccc3c2O1 (stereo not drawn),-2.7,0.66
CC(=NNc1nc2ccccc2[nH]1)c1ccc([N+](=O)[O-])cc1,4.3,0.73
Cc1ccc(CN2CCN(N=Cc3cc(Br)ccc3F)CC2)cc1,-2.5,0.65
O=C(O)CC1SC(=NN=Cc2ccc([N+](=O)[O-])cc2)N(c2ccc(O)cc2)C1=O (stereo not drawn),15,0.64
Cc1ccc(C=NNC(=O)/C(=C\Nc2nccc(C)n2)NC(=O)c2ccccc2)cc1,12,0.64
O=C(NN=Cc1ccccc1F)c1cccc2ccccc12,1.9,0.69
CCN1C(=O)C(C)SC1=NS(=O)(=O)c1ccc(Cl)s1 (stereo not drawn),-3.1,0.69
COc1ccc(Cl)cc1C=NNC(=O)c1c(-c2ccccc2)noc1C,-1.6,0.72
O=C(NN=Cc1ccccc1F)NC1CCCCC1,3.4,0.71
C=CCSC(=Nn1cnc2ccccc2c1=O)N(CC)CC,-3.0,0.76

A draw from above in order of formula weight, largest number first.
Compound,UCH37 inh,E coli growth
Cc1ccc(C=NNC(=O)/C(=C\Nc2nccc(C)n2)NC(=O)c2ccccc2)cc1,12,0.64
Cc1ccc(CN2CCN(N=Cc3cc(Br)ccc3F)CC2)cc1,-2.5,0.65
COc1ccc(Cl)cc1C=NNC(=O)c1c(-c2ccccc2)noc1C,-1.6,0.72
C=CCSC(=Nn1cnc2ccccc2c1=O)N(CC)CC,-3.0,0.76
O=C(NN=Cc1ccccc1F)NC1CCCCC1,3.4,0.71

(next part)
Compound,UCH37 inh,E coli growth
Cc1ccc(CSCC(=O)NN=Cc2sccc2C)cc1,-1.9,0.7
Cn1c(=O)[nH]c(=O)c2c1nc(NC1CCCCC1)n2CC(=O)NC1CCCCC1,3.8,0.71
C=C(C)C1CC=C(C)C(=NNC(=O)C2CC2c2ccccc2)C1 (stereo not drawn),2.6,0.71
COc1cc(C=NNC(=O)C(=O)NCc2ccco2)cc(Br)c1O,8.8,0.7
CC(=NNC(=O)c1ccoc1C)c1ccccc1,3.4,0.59
COc1ccc(NCC(=O)NN=Cc2c(C)nn(Cc3ccccc3)c2Cl)cc1,2.8,0.69
CCOCCn1cnc2sc(C(=O)Nc3nc(C)c(C(=O)OCC)s3)c(C)c2c1=O,-80,0.75
CC(=NNC(=S)NC(C)C)c1ccc(Cl)c([N+](=O)[O-])c1,5.7,0.67
COC(=O)c1ccc(C=NNC(=O)C2CC(=O)N(c3ccc(F)cc3)C2)cc1 (stereo not drawn),2.2,0.66
COc1ccc(Br)cc1C=Nn1c(C)nnc1C,1.8,0.72
CN(C)C=Nc1nc2nccc(-c3ccccc3)n2n1,i,0.68
O=C(NCC1CCCO1)C(=O)NN=Cc1cc(Cl)ccc1O (stereo not drawn),5.5,0.65
Cn1cccc1CC(=O)NN=Cc1cccc([N+](=O)[O-])c1,4.8,0.69
CCOC(=O)c1cnc(N=CN(C)C)s1,10,0.66
Cc1cc(C=NNc2ccc([N+](=O)[O-])cn2)c(C)n1-c1cccc(C(=O)O)c1,15,0.71
Cc1[nH]c2ccccc2c1C=NNC(=O)c1ccco1,12,0.64
Cc1ccc(C=NN=Cc2ccc(C)cc2)cc1,5.8,0.71
CC1(C)Cc2ccccc2C(C(=NO)C(N)=O)=N1,3.9,0.69
Cc1ccc(S(=O)(=O)Oc2ccc(C=NNC(=O)c3cccnc3)cc2)cc1,1.5,0.68
Cc1cc(O)c(C=NNc2cccc(Cl)c2)c(=O)o1,8.1,0.76

Complete entries from above. Order of screens: UCH37 inh | E coli growth
Shown for CN(C)C=Nc1nc2nccc(-c3ccccc3)n2n1 → i | 0.68
Shown for Cc1ccc(C=NN=Cc2ccc(C)cc2)cc1 → 5.8 | 0.71
Shown for Cc1ccc(CSCC(=O)NN=Cc2sccc2C)cc1 → -1.9 | 0.7
Shown for CC(=NNC(=O)CSc1nnc(C)s1)c1ccc(O)cc1 → -0.1 | 0.7
Shown for CCOC(=O)c1cnc(N=CN(C)C)s1 → 10 | 0.66

Continued.
Compound,UCH37 inh,E coli growth
CC(Cn1cnc([N+](=O)[O-])n1)=NNC(=O)c1cccc(F)c1,2.8,0.69
Cc1cccc(C(=O)Oc2ccccc2C=NNc2ccc([N+](=O)[O-])cc2)c1,-15,0.67
CCNc1nc(NCC)nc(NN=Cc2ccccc2)n1,2.0,0.63
CCOC(=O)C=c1sc(=Cc2ccc(C#N)cc2)c(=O)n1CC(=O)Nc1cccc(C)c1C,-3.1,0.71
CC(=NNC(=O)C(O)(c1ccccc1)c1ccccc1)c1ccc(C)o1,6.6,0.71
O=C(CNc1cccc(C(F)(F)F)c1)NN=Cc1cn(-c2ccccc2)nc1-c1ccccc1,-0.7,0.76
O=C(CCNc1n[nH]c(=O)[nH]c1=O)NN=Cc1ccc(Br)cc1,1.0,0.67
COc1ccc(CC(C)=NNS(=O)(=O)c2ccc(Br)cc2)cc1,2.9,0.7
Cc1ccc(-c2n[nH]c(=S)n2N=Cc2cc3c(cc2[N+](=O)[O-])OCO3)cc1,1.7,0.71
CC(=NOCc1ccc(C#N)cc1)c1cc2ccccc2o1,2.2,0.65
C=CCN=c1scc(-c2ccco2)n1N=Cc1ccc(O)c(O)c1O,7.9,0.71
CON=Cc1ccc(N2CCN(C(=O)c3ccc(F)cc3)CC2)c([N+](=O)[O-])c1,3.6,0.62
CCOc1cc(C=NNC(=O)Cc2ccc(C(F)(F)F)cc2[N+](=O)[O-])ccc1O,6.7,0.67
CC1=C(C(=O)Nc2ccccc2C)C(c2ccc(C)o2)n2c(sc(=Cc3ccccc3)c2=O)=N1 (stereo not drawn),3.0,0.73
NCCCCCNC(=O)C=NO,0.0,0.71
CC(C)(C)c1ccc(C2CC2C(=O)NN=Cc2ccc[nH]2)cc1 (stereo not drawn),3.4,0.67
CCC(=O)NN=C(C)CC(=O)Nc1ccc(Cl)cc1,0.1,0.69
O=C(NN=Cc1ccccc1F)NC12CC3CC(CC(C3)C1)C2,1.4,0.69
CC1(C)Cc2c(sc(N=CN3CCCC3)c2C#N)C(C)(C)N1,7.5,0.66
O=C(NN=Cc1ccc([N+](=O)[O-])s1)c1ccccc1Br,7.3,0.68

Following part
The line under a structure holds: UCH37 inh, E coli growth
> CCOc1cc(C=NNC(=O)c2ccc(NC(=O)C(C)(C)C)cc2)ccc1OC(=O)c1cccc(C)c1
    5.2, 0.72
> O=C(O)COc1ccccc1C=NNC(=O)Cc1ccccc1
    1.8, 0.72
> O=C(NN=Cc1ccc2c(c1)OCO2)C(=O)Nc1ccccc1
    -0.1, 0.68
> CC(=NOCC(=O)Nc1ccccc1Br)c1cccs1
    2.2, 0.65
> CCCCNC(=S)N(C)N=Cc1ccccc1C(=O)O
    8.0, 0.7
> CC(CC(=O)Nc1ccc(Cl)c(C(F)(F)F)c1)=NNC(=O)c1ccccc1O
    -27, 0.68
> CCOc1ccc(CN2CCN(c3cc(C)nc4c5c(C)cc(C)nc5nn34)CC2)cc1
    -284, 0.69
> CC(=NNC(=O)c1cc(C)nc2ccccc12)c1cccs1
    5.5, 0.7
> CC(=NNC(=O)c1ccncc1)c1cccs1
    8.9, 0.64
> Cc1cc(-c2n[nH]c(=S)n2N=Cc2ccccc2[N+](=O)[O-])n[nH]1
    2.5, 0.69
> O=C(O)C(CC(=NO)c1ccc(Br)cc1)P(=O)(c1ccccc1)c1ccccc1 (stereo not drawn)
    1.5, 0.67
> CCOc1cc(C=NNC(=O)C(=O)NCc2ccc3c(c2)OCO3)ccc1OCC(=O)N1CCOCC1
    3.1, 0.69
> CSC(=S)NN=Cc1ccccc1
    4.8, 0.61
> COc1ccc(C(=O)NN=C(C)CC(=O)Nc2ccc3c(c2)OCO3)cc1
    -0.3, 0.64
> CC(/C=C/c1ccco1)=NNC(=O)CNc1cccc(C)c1
    -0.1, 0.63
> Cc1ccc(NCC(=O)NN=Cc2cccc(Oc3ccccc3)c2)cc1
    -0.9, 0.65
> Cc1[nH]n(-c2ccccc2)c(=O)c1C=NNC(=O)c1cccc([N+](=O)[O-])c1
    -0.1, 0.78
> COc1ccc(CNC(=O)CC(C)=NNC(=O)COc2ccc(C)cc2Br)cc1
    0.1, 0.72
> CCNC(=S)NN=Cc1ccc(OCC(=O)Nc2ccc(OC)cc2)c(OC)c1
    -14, 0.71
> CCNc1nc(NCC)nc(NN=Cc2cc(OC)c(OC)c(OC)c2)n1
    8.6, 0.66
> Fc1ccc(C=Nn2c(C3CCCCC3)n[nH]c2=S)cc1
    1.4, 0.66
> CC(=NNC(N)=S)c1ccc(Cl)s1
    8.1, 0.66
> C=CCNC(=S)NN=Cc1ccc(-c2ccc(Br)cc2)o1
    -26, 0.69
> Cc1cc(C)nc(NN=Cc2cn[nH]c2-c2ccccc2)n1
    3.4, 0.67
> COc1ccc(OC)c(S(=O)(=O)NN=Cc2c[nH]c3ccccc23)c1
    1.9, 0.65
> O=C(CN1CCN(S(=O)(=O)c2ccc(Br)cc2)CC1)NN=Cc1cccs1
    2.9, 0.7
> CC(NC(=O)COc1ccc(C=NNC(=O)C(=O)Nc2ccccc2Br)cc1)c1ccccc1 (stereo not drawn)
    -1.9, 0.79
> COc1cccc(C=Nn2c(=O)[nH]c3ccccc32)c1OC
    3.9, 0.68
> Cn1c(=O)c2c(ncn2CC(=O)NN=C/C(Cl)=C/c2ccccc2)n(C)c1=O
    6.1, 0.61
> COc1ccc(C=NNC(=O)c2cc(-c3cccnc3)nc3ccccc23)c(OC)c1
    -34, 0.73
> Cc1[nH]c2ccccc2c1C=NNC(=O)CNC(=O)c1cccs1
    9.1, 0.64
> CN1C(=O)/C(=C/C=C2\SCCN2C)SC1=S
    6.6, 0.7
> NC(=NN=Cc1ccco1)SC1CC(=O)N(c2ccc(C(=O)O)cc2)C1=O (stereo not drawn)
    14, 0.69
> O=C(NN=Cc1ccc([N+](=O)[O-])cc1)c1cc(C2CC2)[nH]n1
    7.4, 0.74
> COc1cccc(C=NNC(=S)NC2CC3CC2C2C=CCC32)c1O (stereo not drawn)
    4.8, 0.71
> CCCCC(C)=NNC(=O)C(=O)NCCc1ccccc1
    0.5, 0.77
> COc1ccccc1N1CCN(N=Cc2sccc2C)CC1
    1.9, 0.67
> COc1ccc(NN=C(C#N)C(N)=O)cc1
    14, 0.72
> COc1ccc(OC)c(C=NNC2=NS(=O)(=O)c3ccccc32)c1
    -0.8, 0.67
> CC(=NNC(=O)c1cccc(S(=O)(=O)Nc2cccc(Cl)c2)c1)c1cccs1
    1.8, 0.72
> O=S(=O)(NN=Cc1cccc(F)c1)c1ccccc1
    0.5, 0.7
> CCOc1ccc(CNC(=S)NN=Cc2ccncc2)cc1
    44*, 0.72
> COc1ccc(C=NOCC(=O)N2CCCC2)c(OC)c1
    4.2, 0.71
> CC(=NNC(=O)C1(C)CC1(Br)Br)c1ccc(NC(=O)c2ccc(C)o2)cc1 (stereo not drawn)
    -0.9, 0.67
> O=C(NN=Cc1ccc(OCc2cnc(Cl)s2)cc1)c1ccncc1
    -2.2, 0.63
> CN(C)c1ccc(C=NN(Cc2ccccc2)c2ccccc2)cc1
    2.0, 0.69
> Fc1cccc(Cl)c1C=NNc1ccccn1
    1.7, 0.72
> O=C(CSc1ncnc2ccccc12)Nc1ccc(N2CCOCC2)cc1
    -0.6, 0.77
> COc1ccc(C=N/N=C2/NC(=O)C(c3ccccc3)S2)c(OC)c1 (stereo not drawn)
    9.8, 0.75
> CCOc1cc(C=Nn2cnnc2)ccc1OC(=O)c1cccc([N+](=O)[O-])c1
    2.3, 0.69
> Cc1ccc(C=Nn2cnc3sc(-c4ccccc4)cc3c2=O)o1
    1.0, 0.67
> COc1ccc(/C=C(/NC(=O)c2ccccc2)C(=O)NN=Cc2cccs2)cc1OC
    12, 0.66
> CCN(CC)c1ccc(C=NN2CCN(Cc3ccccc3)CC2)c(O)c1
    6.7, 0.63
> COc1ccc(O)c(C=NNC(=O)CCC(=O)Nc2ccc(F)cc2)c1
    -50, 0.65
> ON=Cc1ccc2noc(-c3ccc(Cl)cc3)c2c1
    -0.6, 0.66
> CCOC(=O)c1c(N=Cc2ccc(C)cc2O)sc2c1CCC2
    3.4, 0.73
> Cc1ccc(NCc2nnc(SC(C)C(=O)NN=Cc3ccc(C)o3)n2-c2ccccc2)cc1 (stereo not drawn)
    1.6, 0.69
> CCOC(=O)C1(CCC(C)=NNC(N)=O)CC(C)(C)OC1=O (stereo not drawn)
    3.4, 0.64
> COc1ccc(NC(=O)ON=C2CCCc3ccc(OC)cc32)cc1
    -0.5, 0.68
> NC(=O)NN=Cc1cc(Br)ccc1OCC(=O)NCc1ccccc1
    3.4, 0.67
> CCOC(=O)C(C#N)=NNc1ccc(S(=O)(=O)Nc2nc(C)cc(C)n2)cc1
    11, 0.68
